# MT1-MMP act inh: blockers of MT1-MMP proenzyme processing, primary screen, HT1080 RFP-PRO-GFP cells, GFP/RFP fluorescence | GFP/RFP ratio fluorescence, overnight; percent of plate control window, DMSO zero | GFP/RFP ratio change, % at 20 µM | AID 651647, 2012 | actives 0.061% (n = 360,000);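 active means GFP/RFP ratio change of at least 30% with cell ATP level not reduced by more than half and red fluorescence within 50% of control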; further: strong numbers were not always called active
#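 Assay system: RFP-PRO-GFP reporter HT1080 cells; read-out basis: GFP/RFP fluorescence ratio; benchmarks: DMSO wells and RFP-L50D-GFP cells; doses: 20 µM single dose, 1% DMSO; schedule: overnight cell settling, then overnight compound exposure, 37 °C, 5% CO2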
# eIF4H FP inh: human eIF4H binding inhibitors, primary screen, translation initiation inhibitor project, biochemical, uHTS, fluorescence polarization | Eukaryotic translation initiation factor 4H (Homo sapiens), Q15056 | eIF4H fluorescence polarization binding assay | inhibition, % at 35 µM | actives 0.94% (n = 290,000) | AID 2012, 2009;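 active means 50% or more with normal probe brightness, or confirmed in later tests; inconclusive means above 50% with abnormal brightness, or retests that disagree; inactive means below 50% or failed in later tests; about a fifth of its hits are not listed in these tables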;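 further: calls also rest on retests at 20 µM and on dose response follow-up; 0% = protein and probe with vehicle and 100% = probe without protein; strong numbers were not always called active; many hits fall short of the cut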
# Yeast UUG start: modulators of yeast start codon fidelity, primary screen, whole organism, S. cerevisiae, single point, plate reader; actives 0.13% (n = 350,000); S. cerevisiae UUG-firefly luciferase reporter, luminescence/redox ratio; activity score, % at 18.7 µM;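 active means replicate mean at a twofold rise or more, about +100% in these data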;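 further: firefly luciferase made from a UUG start codon reports start codon fidelity; reporter light over untreated wells divided by growth signal over untreated wells; some hits fall short of that in this replicate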
# Rce1 inh: yeast Rce1p protease inhibitors, primary screen, biochemical, fluorescence, cell-free homogeneous; CAAX prenyl protease 2 (Saccharomyces cerevisiae (strain ATCC 204508 / S288c)), Q03530; yeast membranes, quenched prenylated peptide cleavage fluorescence; calls only; actives 0.27% (n = 290,000); AID 2563, 2010;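 active means fall in fluorescence gain of 50% or more versus controls, with final raw signal at or below 3038400; inconclusive means same 50% fall but final raw signal above 3038400; inactive means fall in fluorescence gain under 50%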;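 further: plate controls were neutral control wells for no effect and wells lacking membranes for full effect; tested at 10 µM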
# Target sequence (Q03530 whole entry, looked up): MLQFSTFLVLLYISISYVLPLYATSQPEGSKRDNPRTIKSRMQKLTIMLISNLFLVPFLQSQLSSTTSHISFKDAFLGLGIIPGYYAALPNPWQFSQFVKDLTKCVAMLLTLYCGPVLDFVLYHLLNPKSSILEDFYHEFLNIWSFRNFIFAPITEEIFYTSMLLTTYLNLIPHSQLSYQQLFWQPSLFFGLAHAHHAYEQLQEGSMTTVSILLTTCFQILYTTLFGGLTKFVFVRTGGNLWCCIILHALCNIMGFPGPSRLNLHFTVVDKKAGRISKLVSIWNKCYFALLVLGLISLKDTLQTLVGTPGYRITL
# CSC inhib: cancer stem cell viability inhibitors, primary screen, luminescence; cancer stem cell-like cells viability; inhibition, % at 7.5 µM; actives 1.1% (n = 300,000);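 active means mean at 75% or more and at least half the replicates too; inconclusive means mean and replicates disagree; tested in HMLE shEcad cells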;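 further: 0% = median of negative and 100% = median of positive control wells; the first replicate is given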
# PABP polyA inh: PABP poly(A) RNA binding inhibitors, primary screen, biochemical, fluorescence polarization, uHTS. inhibition, % at 35 µM. Polyadenylate-binding protein 1 (Homo sapiens), P11940. AID 2014, 2009. actives 1% (n = 290,000);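 active means 50% or more with normal probe brightness, or confirmed in later tests; inconclusive means above 50% with abnormal brightness, or retests that disagree; inactive means below 50% or failed in later tests; about a fifth of its hits are not listed in these tables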;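 further: calls also rest on retests at 20 µM and on dose response follow-up; controls were probe without protein and protein plus probe with vehicle; some compounds called inactive have numbers as strong as hits; many hits fall short of the cut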
# Target sequence (P11940 whole entry, looked up): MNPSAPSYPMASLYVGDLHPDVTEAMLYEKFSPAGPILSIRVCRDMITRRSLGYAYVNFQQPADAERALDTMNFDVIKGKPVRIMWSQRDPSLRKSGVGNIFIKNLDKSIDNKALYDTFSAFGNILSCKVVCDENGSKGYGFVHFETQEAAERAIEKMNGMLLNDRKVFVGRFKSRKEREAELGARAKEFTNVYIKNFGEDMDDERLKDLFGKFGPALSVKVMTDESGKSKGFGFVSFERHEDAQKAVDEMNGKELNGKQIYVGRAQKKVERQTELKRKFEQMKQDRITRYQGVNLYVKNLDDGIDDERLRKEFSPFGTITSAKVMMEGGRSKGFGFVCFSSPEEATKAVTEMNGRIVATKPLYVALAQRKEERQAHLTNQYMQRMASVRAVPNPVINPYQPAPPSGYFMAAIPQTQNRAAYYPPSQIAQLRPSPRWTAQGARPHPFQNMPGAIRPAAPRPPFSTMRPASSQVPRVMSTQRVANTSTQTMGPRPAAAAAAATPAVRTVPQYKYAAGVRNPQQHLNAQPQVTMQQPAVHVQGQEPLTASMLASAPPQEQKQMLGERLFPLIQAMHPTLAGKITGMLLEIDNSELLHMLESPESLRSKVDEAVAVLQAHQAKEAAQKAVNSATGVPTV
# Env fusion inh: inhibitors of HIV-1 Env-driven cell-cell fusion, primary screen, HeLa-JRFL effector, CEM21 target cells, luciferase; inhibition, % at 12.3 µM; actives 1.1% (n = 360,000); AID 651610, 2012;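 active means mean replicate inhibition score of at least 50 and every replicate individually at or above 50; inconclusive means only one of the two criteria met; inactive means mean below 50 and not all replicates reaching 50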;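 further: 0% = plate neutral controls and 100% = maraviroc near 300 nM; one replicate is shown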
# eIF4H FP inh retest: further read-out of eIF4H FP inh, marked with its call; inhibition, %; compound at 20 µM; confirmation average;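 mean of two retest wells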
# PABP polyA inh retest: also measured in PABP polyA inh; calls as there; inhibition, %; compound at 20 µM; confirmation repeats;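 mean of two retest wells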
# MT1-MMP act inh RFP: recorded beside MT1-MMP act inh, whose call it bears; RFP signal change, %; measured here: RFP expression control read;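 0 = vehicle wells; hits needed this value within 50% of zero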
# * marks the source's active call; other numbers are inactive results; i = inactive; ? = inconclusive; / = no result given; & = joins results of further samples.
# Preview, two compounds:
SMILES,MT1-MMP act inh,MT1-MMP act inh RFP,eIF4H FP inh,Yeast UUG start,Rce1 inh,CSC inhib,PABP polyA inh,Env fusion inh,others
Cn1c(=O)cc(-c2ccccc2)c2ccccc21,6,4,-4,-3,i,16,-6,-50,
COc1ccc(F)cc1-c1nc(N)nc(N)n1,-2,5,/,-12,/,-4,/,-2,

# The whole of this part, repeating the preview:
SMILES,MT1-MMP act inh,MT1-MMP act inh RFP,eIF4H FP inh,Yeast UUG start,Rce1 inh,CSC inhib,PABP polyA inh,Env fusion inh,others
Cn1c(=O)cc(-c2ccccc2)c2ccccc21,6,4,-4,-3,i,16,-6,-50,
COc1ccc(F)cc1-c1nc(N)nc(N)n1,-2,5,/,-12,/,-4,/,-2,
CCOC(=O)C(C)(C)Oc1ccc(Cl)cc1,5,-2,/,-4,/,6,/,-24,
COc1cc(/C=C(\C#N)c2nc3ccc(C)cc3[nH]2)c([N+](=O)[O-])cc1OC,-2,-1,-3,-24,i,-3,9,/,
Cc1cc(=O)[nH]c2c1c(C)nn2-c1ccccc1,-5,1,2,-10,i,-7,1,-5,
COCCNc1nc2nonc2nc1N(C)Cc1cccc2cnccc12,-3,-5,-4,-16,i,-13,5,0,
COc1ccc(OC)c(N(C(=O)c2snc(C(N)=O)c2N)C(C(=O)NCC2CCCO2)c2ccc3ncccc3c2)c1 (stereo unspecified),5,3,3,16,i,9,-5,-17,
CC(=O)CCS(=O)(=O)c1ccc(C)c(C)c1,2,9,-2,-14,i,14,8,/,
CC(C)N1C(=O)CCN(C=O)c2ccccc21,4,2,1,/,i,3,-5,?,
CCOc1ccccc1/C=C/c1onc(C)c1S(=O)(=O)N1CCC(C(=O)NC(C)C)CC1,3,3,-12,-6,i,10,-12,-2,
CCOc1ncccc1C(=O)Nc1ccc(S(=O)(=O)Nc2cc(C)nc(C)n2)cc1,3,-2,/,-3,/,20,/,-10,
COc1ccc(C)cc1-n1c(SCC(=O)Nc2cc(C)on2)nc2sc(C)c(C)c2c1=O,-23,-11,-7,-13,i,11,-3,-185,
O=C(O)Cc1ccc(NC(=O)c2ccc(Cl)c(Cl)c2)cc1,2,-1,-1,-12,i,-3,-11,16,
CC1CCCCC1NC(=O)C1CCN(c2c3c(nc4ncnn24)CCC3)CC1 (stereo unspecified),0,-6,3,-7,i,-4,-2,1,
CC(/C=N/N1CCN(c2ccccn2)CC1)=C\c1ccccc1,4,-8,-8,-9,i,-2,-7,-16,
Cc1ccc(S(=O)(=O)NCC(=O)OCC(=O)NCc2ccco2)cc1,9,1,/,-6,/,-26,/,6,
COCc1ccc(CN2CCc3c([nH]c4ccccc34)C2C(C)(C)C)o1 (stereo unspecified),-14,-7,6,/,i,9,4,3,
Cc1cc(C)cc(NC(=O)c2ccccc2CC[N+](=O)[O-])c1,5,3,-8,-11,i,0,-1,/,
O=c1[nH]c(CSc2ncnc3sccc23)nc2cc(C(F)(F)F)ccc12,-2,1,-2,-20,i,-5,-2,8,
O=c1cc[nH]c2c1ccc1c(=O)cc[nH]c12,-9,-5,86*,-16,i,/,33,15,eIF4H FP inh retest=95*;PABP polyA inh retest=21
O=C(CSCc1ccccc1F)NCc1ccccc1,2,-4,1,-6,i,-5,3,-18,
CCCCCN(C(=O)CCC(=O)OCC(=O)NCc1ccc(OC)cc1)c1c(N)n(CCCC)c(=O)[nH]c1=O,0,-1,-7,1,i,5,-4,-25,
CCN(CC)C(=O)c1sc2nc(Cc3ccccc3)[nH]c(=O)c2c1C,-2,0,-2,-9,i,-6,-3,11,
Cc1sc2nc(CN3CCCC3)nc(N3CCN(S(=O)(=O)c4cccs4)CC3)c2c1C,3,5,-8,-9,i,-11,-21,-122,
COC(=O)C1CCN(C(=O)c2cc(OC)c(OC)c(OC)c2)CC1,-1,8,-5,-4,i,-1,8,/,
Cn1c(C(=O)NCCc2ccccc2)cc(=O)n(C)c1=O,2,1,2,2,i,-23,7,-5,
COc1ccc(-c2csc(C(C)(O)c3ccccc3)n2)cn1 (stereo unspecified),0,-6,/,-12,/,/,/,-7,
COc1cccc(NC(=S)N(CCC(C)C)C(C)c2ccncc2)c1 (stereo unspecified),3,-1,-5,-7,i,5,-2,15,
Cc1cc(C)cc(NC(=O)c2cccc(C(=O)Nc3cc(C)cc(C)c3)n2)c1,-3,1,20,-18,i,-1,-7,-15,
CCOP(=O)(OCC)C(Nc1ccccc1)c1ccccc1C(F)(F)F (stereo unspecified),-1,-1,-7,/,i,7,2,18,
COCCNC(=O)C1CCCN(S(=O)(=O)c2c(C)noc2/C=C/c2cccs2)C1 (stereo unspecified),3,-3,-2,/,i,-8,-2,5,
O=C(NC1CCCC1)c1cc(-c2cccc(Cl)c2)on1,1,1,-5,-14,i,6,-2,-48,
CN(C)C(CNC(=O)c1c(F)cccc1Cl)c1ccco1 (stereo unspecified),-2,2,-6,-14,i,-11,0,0,
C[C@H]1CCCCO[C@H](CN(C)Cc2ccc(C(=O)O)cc2)[C@@H](C)CN([C@@H](C)CO)C(=O)c2cc(NS(=O)(=O)c3cn(C)cn3)ccc2O1,0,2,/,22&9,/,/,/,9,
O=C(CN1CCC(C(O)(c2ccccc2)c2ccccc2)CC1)Nc1cc(Cl)ccc1Cl,-24,-18,8,-8,i,-4,-6,/,
O=C(N/N=C/c1ccc([N+](=O)[O-])cc1)c1ccc(COc2ccccc2-c2ccccc2)cc1,-1,-5,-4,/,i,35,26,-60,
O=C(Cc1ccc(S(=O)(=O)N2CCCCC2)s1)Nc1ccc(F)c(F)c1,1,-10,-3,/,i,/,11,/,
CCc1cccc2c(SCC(=O)NCC3CCCO3)nc(-c3ccc(F)cc3)nc12 (stereo unspecified),4,2,-8,-16,i,/,-3,/,
CC(=O)C1=C(O)C(=Cc2ccccc2)OC1=O,1,2,/,-12,/,/,/,-3,
CC1CCC(NC(=O)CN2C(=O)COc3ccc(S(=O)(=O)N4CCCC4)cc32)CC1 (stereo unspecified),/,/,3,/,i,-3,-4,/,
CN(C(=O)c1cnccn1)c1nnc(-c2cnccn2)s1,3,3,6,-3,i,15,1,/,
COc1ccc(OC)c(CN2CCCC(CO)C2)c1 (stereo unspecified),5,3,1,-1,i,-4,3,/,
CC1CN(C(=O)CCC(=O)NCc2ccc(F)cc2)c2ccccc2S1 (stereo unspecified),-9,3,5,30,i,-6,-10,-14,
COc1ccc(NC(=O)Nc2cccc3c2O[C@@H](CN(C)CC2CCCCC2)[C@@H](C)CN([C@H](C)CO)C3=O)cc1,2,1,/,10&2,/,23,/,-151,
O=c1c2c3c(sc2n2c(=S)[nH]nc2n1-c1ccccc1)CCC3,-2,1,-5,-7,i,-9,-6,3,
CSc1nc(C)cc(-n2cc(F)c(=O)[nH]c2=O)n1,-2,-2,-8,-3,i,13,10,/,
COc1ccc(Nc2nc(NN)nc(C)c2[N+](=O)[O-])cc1,-5,-9,8,/,/,28,-2,9,
O=C1NC[C@@H](Cc2cccc3ccccc23)N(CCc2cc(C(F)(F)F)cc(C(F)(F)F)c2)C1=O,-5,3,-8,0,i,6,-2,19,
COc1ccc(NC(=O)CCSc2ccc(C)cc2)cc1S(=O)(=O)Nc1ccccc1Cl,2,-7,4,/,i,-2,2,10,
COc1cccc(/C=N/NC(=O)c2cnccn2)c1OC,2,5,-9,/,i,-1,-11,16,

# Continuation.
SMILES,MT1-MMP act inh,MT1-MMP act inh RFP,eIF4H FP inh,Yeast UUG start,Rce1 inh,CSC inhib,PABP polyA inh,Env fusion inh,others
COc1ccc(OC)c(Nc2ncnc3sc(-c4ccccc4)cc23)c1,-1,-5,8,/,i,3,-8,-6,
O=C(O)c1ccccc1-c1ccccc1C(=O)Nc1cccc(O)c1,-1,6,7,-2,i,0,17,15,
CCCCCN(C(=O)CN(C)Cc1ccc(OC)cc1OC)c1c(N)n(CCCC)c(=O)[nH]c1=O,-11,-6,1,10,i,-3,0,/,
COc1ccc2c(=O)c(-c3nc(C)cs3)coc2c1,15,0,-9,-22,i,21,-6,/,
Cc1nn(C)c(Cl)c1S(=O)(=O)N1CCC(CO)(CCc2ccccc2)CC1,2,-13,-5,/,i,1,-5,15,
O=C(N/N=C\c1ccc(F)cc1)c1csnn1,4,3,7,-5,i,-10,-6,/,
CCO[C@H]1OC(C(=O)NCc2nc3ccccc3[nH]2)=C[C@@H](c2ccc(Br)cc2)[C@@H]1CCCO,6,-3,/,-15,i,-4,/,-23,
Nn1c(SCC(=O)NCc2ccc3c(c2)OCO3)nnc1C(F)(F)F,5,1,/,6,/,-16,/,-2,
O=C(NCC(=O)N1CCN(C(=O)c2ccco2)CC1)c1ccccc1,3,4,6,-6,i,2,7,-143,
CC(NC(=O)NC(=O)c1cccc(Cl)c1)c1ccccc1 (stereo unspecified),-4,-9,6,-13,i,1,15,1,
Clc1ccc(-c2ccccc2)cn1,-2,3,/,-14,/,-19,/,-18,
O=C(Nc1ccccc1C(=O)N1CCCCC1)c1ccc(Cl)cc1Cl,-1,0,5,-13,i,/,-4,9,
COc1ccc(C(=O)NNC(=O)C(=O)/C=C(\O)c2ccc(C)cc2)cc1,-8,1,-2,/,i,/,1,12,
COC(=O)CSc1cc([N+](=O)[O-])cc2c1c(C1OCCO1)nn2-c1ccccc1,-1,0,3,/,i,6,0,/,
N#Cc1ccc(OCC(=O)N/N=C/C2CC=CCC2)cc1 (stereo unspecified),-3,1,-8,/,i,/,-3,0,
C=CCn1c(=S)[nH]c2cc(C(=O)Nc3ccc(F)cc3)ccc2c1=O,2,-4,-5,-12,/,-1,2,8,
COc1ccc(N2CCN(c3oc(COc4ccccc4)nc3C#N)CC2)cc1,-14,-26,1,-8,/,/,2,-3,
Nc1nsc2ccccc12,-10,-5,-4,-7,i,-8,7,/,
Cc1ccc(C(=O)N[C@H](C(=O)OCC(=O)c2ccc[nH]2)C(C)C)cc1,1,2,6,/,i,-17,10,-8,
COc1ccccc1Nc1nc(NCC2CCCO2)c2ccccc2n1 (stereo unspecified),3,-8,12,-9,i,12,-11,-3,
Cc1ccc(C(=O)NC(Cc2cccc(C(F)(F)F)c2)C(=O)O)cc1 (stereo unspecified),6,5,/,-36,/,/,/,10,
O=C(Cc1c[nH]c2ccccc12)N[C@@H](Cc1c[nH]c2ccccc12)C(=O)O,2,2,4,6,i,-2,-2,-3,
CCOc1ccc(Nc2nc(Nc3ccc(O)cc3)nc(C)c2[N+](=O)[O-])cc1,5,-4,2,/,i,5,0,13,
CC(=O)N1CCN(C(=O)c2cc(S(=O)(=O)N3CCCCC3)ccc2Cl)CC1,3,5,/,-11,i,-15,/,/,
CC1(C(=O)NS(=O)(=O)c2ccccc2Cl)CCN1C(=O)C1CCCCC1 (stereo unspecified),-1,4,/,-14,/,/,/,2,

# High-throughput results deposited in PubChem by several laboratories.
